# Compound activity: PubChem, National Center for Advancing Translational Sciences (NCATS)
# CtBP-E1A blk – blocks the CtBP interaction with E1A. AlphaScreen GST-E1A/His-CtBP binding, 1536-well; stronger effect = lower value; control for the full effect not named in the record. activity change, % (no concentration beside the values). hit rate 0.49% among 340,000. AID 651724; in the data active means activity change below about -65%; inconclusive means about -30% to -65%; inactive means above about -30%; note: % is set by controls: 0 for no effect and ±100 for the full control effect; compound concentration not given in the record
#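 GST-E1A and His-tagged CtBP (125 nM each as 5X stock) were preincubated with pin-transferred compound for 2 h at 37 °C in the dark, then glutathione donor and nickel acceptor beads were added for 1 h before AlphaScreen reading.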
# PINK1 modulator – modulators of PINK1 expression; hit rate 0.2% among 410,000; AID 624263; PINK1 immunofluorescence, high-content cytometry, 24 h; Potency, µM (series often up to 76.6 µM), inactives show top-dose activation (PINK1 increase), usual class: activators; active = well fitted activation curve with a large enough effect; inconclusive = small, poorly fitted or top-dose-only effect; inactive = flat fitted curve, though single readings scatter; cell line not stated here;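 note: potency is the fitted concentration of half-maximal effect; % of control where 0% means no effect; nearly all actives have a fitted effect of over 65% in size; a mitochondrial uncoupler was the plate control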
#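 PINK1 protein, normally rapidly degraded, was detected by immunofluorescence after 24 hour compound treatment of a stable cell line. Titration data (5 concentrations) came from laser-scanning cytometry, with CCCP-treated wells as controls.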
# Six1-Eya2 blk – blocks human Six1 binding to Eya2; AlphaScreen GST-Six1/His-Eya2 binding, biochemical; stronger effect = lower value; control for the full effect not named in the record; activity change, % (test concentration not listed); hit rate 0.56% among 360,000; AID 651725; in the data active = activity change below about -65%; inconclusive = about -30% to -65%; inactive = above about -30%; note: % is set by controls: 0 for no effect and ±100 for the full control effect; compound concentration not given in the record
# Target sequence (O00167 whole entry, looked up): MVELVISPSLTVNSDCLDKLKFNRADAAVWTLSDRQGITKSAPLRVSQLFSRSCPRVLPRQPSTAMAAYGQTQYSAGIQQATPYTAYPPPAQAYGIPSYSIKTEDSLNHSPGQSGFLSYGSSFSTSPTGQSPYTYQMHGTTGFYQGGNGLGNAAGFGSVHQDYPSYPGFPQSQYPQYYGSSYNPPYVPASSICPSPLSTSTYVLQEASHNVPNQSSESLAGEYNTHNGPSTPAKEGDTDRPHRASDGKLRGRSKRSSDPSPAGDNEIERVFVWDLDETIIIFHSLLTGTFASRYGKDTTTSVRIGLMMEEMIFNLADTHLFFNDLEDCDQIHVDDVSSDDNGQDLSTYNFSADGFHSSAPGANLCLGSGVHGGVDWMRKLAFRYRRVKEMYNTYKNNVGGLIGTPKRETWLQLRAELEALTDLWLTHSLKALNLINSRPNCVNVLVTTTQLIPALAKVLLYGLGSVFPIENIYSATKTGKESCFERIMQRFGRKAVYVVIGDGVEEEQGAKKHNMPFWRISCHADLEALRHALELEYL
# Target sequence (Q15475 whole entry, looked up): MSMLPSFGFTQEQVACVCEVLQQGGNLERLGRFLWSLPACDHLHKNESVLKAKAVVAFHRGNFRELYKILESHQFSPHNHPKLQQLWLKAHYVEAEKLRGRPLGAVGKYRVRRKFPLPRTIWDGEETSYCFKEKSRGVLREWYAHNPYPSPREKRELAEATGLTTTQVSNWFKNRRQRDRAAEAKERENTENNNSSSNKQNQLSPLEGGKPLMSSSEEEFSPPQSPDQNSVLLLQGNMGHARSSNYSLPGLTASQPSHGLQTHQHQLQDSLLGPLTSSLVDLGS
#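 AlphaScreen luminescence read after one hour at 37 °C in darkness. Pin-transferred compounds met GST-Six1 and His-Eya2 protein (5X stock 250 nM/500 nM) plus glutathione donor and Ni-chelate acceptor beads (5X, 50 ug/mL).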
# TRPML1 ag – activates the human TRPML1 channel; Q9GZU1; TRPML1-expressing cells, Ca2+ dye fluorescence, FDSS; host cell line not named in the record; reference of the full effect not given here; activation, % (no concentration beside the values); hit rate 0.12% among 410,000; in the data active = activation above about 50%; inconclusive = about 30% to 50%; inactive = below about 30%; note: 0% is about no effect; the text of the record puts the active cut at 80%
#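 Agonist activity was taken from a 110 s kinetic Ca2+ dye read on the FDSS after pinning compounds onto TRPML1-DL cells. The cells were seeded at 1,500/well with Tet inducer, incubated about 16 h, then dye-loaded at room temperature.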
# D2 PAM – positive allosteric modulators of human D2 dopamine receptor | DiscoveRx D2 beta-arrestin cells, luminescence, 90 min; 100% = 57 uM dopamine signal | potentiation, % (test concentration not listed) | hit rate 0.23% among 360,000; active = potentiation of 50% or more; inconclusive = 30% to 50%; inactive = 30% or less;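 note: compound concentration not given in the record; tested on top of an EC20 dose of dopamine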
#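 D2 cells co-treated with compound plus 50 nM dopamine (EC20) for 90 min at 37 deg C to detect potentiation. Beta-arrestin recruitment was read as enzyme-fragment luminescence after 1 h at ambient temperature. Full response was set by 57 uM dopamine.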
# D2 agonist – agonists of human D2 dopamine receptor (beta-arrestin). DiscoveRx PathHunter D2 beta-arrestin, luminescence, 90 min; 100% = 57 uM dopamine signal. hit rate 0.084% among 360,000. activation, % (no concentration beside the values); in the data active = activation above about 40%; inconclusive = about 15% to 40%; inactive = below about 15%; note: compound concentration not given in the record; the text of the record calls up to 30% inactive
#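 DiscoveRx PathHunter D2 beta-arrestin cells (2,100/well) attached overnight, then compound-stimulated 90 min at 37 C in HBSS/10 mM HEPES/0.1% Tween-20 buffer; beta-galactosidase complementation read by luminescence after 1 h at ambient temperature. Dopamine 57 uM final (EC100) as control.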
# * = called active by the depositor; ? = inconclusive; . = not tested or not shown; [ ] = another dose, or the depositor's remark. The order is random; about 1.3% have a hit in one of these screens.
SMILES,CtBP-E1A blk,PINK1 modulator,Six1-Eya2 blk,TRPML1 ag,D2 PAM,D2 agonist
CCOc1ccc(S(=O)(=O)NCCC(=O)N2CCN(C(C)=O)CC2)cc1,-16.3,1.5%,13.7,-0.3,-13.6,-2.0
COc1ccccc1N(C(=O)c1ccco1)C(C(=O)NC1CCCC1)c1ccncc1 (stereo not drawn),11.9,2.4%,4.9,-1.4,-5.7,-1.0
COCCNC(=O)C1CC(c2ccc(C(F)(F)F)cc2)=NO1 (stereo not drawn),2.3,1.0%,-23.9,-0.3,-10.7,-2.5
Cc1ccc(N(C(=O)Cn2nnc3ccccc32)C(C(=O)NC2CCCCC2)c2cn(C)nc2C)cc1 (stereo not drawn),-8.0,5.1%[38.3 µM],1.4,-0.1,-14.7,-2.5
Cc1ccc(S(=O)(=O)CCC(=O)OCC(=O)Nc2cccc(S(=O)(=O)N3CCCCC3)c2)cc1,-7.1,-1.0%,-5.9,-1.0,-15.6,-0.9
CC(=O)Nc1c2c(nn1-c1ccccc1C)CS(=O)(=O)C2,-0.2,1.4%,-1.8,0.2,1.7,-1.5
COc1cc(OC)c(NC(=O)[C@@H]2CCC(=O)N2C2OC(=O)c3c2ccc(OC)c3OC)cc1Cl (stereo partly drawn),0.2,0.5%,3.0,.,6.9,7.6
Cn1c(CNC(=O)CNC(=O)c2cccc(F)c2)cc(=O)n(C)c1=O,5.7,-0.5%,12.5,-0.6,-19.4,-1.6
CC(C)C(NS(=O)(=O)c1cccc(C(F)(F)F)c1)C(=O)N1CCc2ccccc2C1 (stereo not drawn),3.3,-0.9%,2.9,2.2,-8.5,-2.3
CS(=O)(=O)/C(C#N)=C/c1c(-c2ccccc2)nc2n1CCS2,0.0,-0.5%,18.1,1.2,-3.1,-3.5
Cc1ccc2c(C(=O)CN3CCCC3)c(C)[nH]c2c1,-0.7,0.4%,0.1,-0.5,3.7,2.3
CCOC(=O)Cn1ccc(NC(=O)COc2ccc(F)cc2)n1,0.8,1.4%,3.0,0.1,-2.9,1.9
CCOc1ccc(CCNC(=O)CCC(=O)N2CCOc3ccc(C)cc32)cc1OCC,-5.1,1.3%,1.0,0.5,-17.6,-6.6
CN(CC(=O)NC(=O)NCc1ccccc1)Cc1ccc(Cl)c(Cl)c1,-1.9,2.2%,-3.8,2.0,-24.0,-4.0
Cn1nc(C(F)(F)F)c(-c2cccc(C(F)(F)F)c2)c1NC(=O)CSCC(=O)O,-13.6,0.8%,15.5,-0.2,-28.5,-4.6
O=C1N=C(N2CCOCC2)S/C1=C\C=C/c1ccccc1,-19.4,.,-1.2,-0.4,-9.9,2.0
CCN(Cc1nc2ccccc2c(=O)[nH]1)C(=O)c1cccc(OCc2c(C)noc2C)c1,15.3,2.1%,-7.1,-0.5,16.0,-0.3
C=CCn1c(C)nc2c(sc3nc4c(cc32)COC(C)(C)C4)c1=O,-2.6,2.0%,-11.9,-0.1,2.1,1.3
Cc1cc(C)c2c(N)c(C(=O)NC3CCCC3)sc2n1,19.2,1.2%,-1.3,0.9,4.2,6.5
CCCCC(=O)N1CCN(c2nc3ccc(F)cc3s2)CC1,.,1.8%,-2.2,0.8,-7.8,2.2
c1cc2c(cn1)cnc1cscc12,10.2,-1.2%,-6.9,0.5,-1.8,-0.8
O=C1CC(N(Cc2ccc3c(c2)OCO3)C(=O)Nc2ccc(F)cc2)C(=O)N1c1ccccc1 (stereo not drawn),1.8,9.9%[38.3 µM],0.4,-0.4,-5.5,-0.4
C[C@]12CCC(=O)C=C1CCC1C2CC[C@@]2(C)C1CCC21OCCO1 (stereo partly drawn),-8.9,-1.1%,-2.2,2.3,-5.1,1.2
COc1ccc(S(=O)(=O)N2CCC(C(=O)NCCc3c[nH]c4ccccc34)CC2)cc1,-3.0,0.1%,9.3,1.3,-10.2,0.0
NC(=O)c1ccsc1NC(=O)COC(=O)c1nc(Cl)ccc1Cl,-10.8,-3.1%,-13.3,1.0,3.7,-0.2
SMILES,CtBP-E1A blk,PINK1 modulator,Six1-Eya2 blk,TRPML1 ag,D2 PAM,D2 agonist
CSc1nc(N)c(C(=O)N(c2ccccc2)c2ccccc2)s1,-3.4,-0.5%,-19.5,2.5,-4.3,-4.5
O=C(Nc1nccs1)c1ccc2c(=O)n3c(nc2c1)CCCCC3,-4.7,3.3%,-2.2,0.0,-4.1,-0.3
O=C(C1CC(=O)N(C2CCCC2)C1)N1CCC(Cc2ccccc2)CC1 (stereo not drawn),-7.4,.,-2.4,0.1,-14.7,-3.0
COCCNc1cc(C)c(C#N)c2nc3ccccc3n12,-23.2,2.0%,-22.6,0.6,-3.8,-0.5
CN(C)[C@@H](CO)c1nnc([C@H](Cc2ccc(O)cc2)NC(=O)C2CCNCC2)o1,-5.5,-1.5%,0.1,-0.7,-3.3,-1.0
O=C(/C=C/c1ccc(Cl)cc1)c1ccc([N+](=O)[O-])o1,-3.4,3.4%,6.5,0.9,24.8,6.3
COc1ccc(C(=O)CCC(=O)Nc2cccnc2)cc1OC,4.3,-1.8%,6.0,0.1,-0.9,-0.7
C/C=C(\C)CN1CCC(Oc2cc(C(=O)NC3CC3)ccc2OC)CC1,6.0,0.5%,3.8,0.4,-27.0,-1.2
CC(C)N1CCc2c(sc(NC(=O)Cc3ccccc3)c2C(N)=O)C1,1.4,1.5%,-1.5,-0.5,-14.0,-1.4
COc1ccc(C2C(C#N)=C(N)Oc3cc(C)n(Cc4ccco4)c(=O)c32)cc1 (stereo not drawn),-1.7,-1.4%,-17.9,1.5,-13.4,-0.3
O=C(CN1C(=O)C2C3c4ccccc4C(c4ccccc43)C2C1=O)N1CCOCC1 (stereo not drawn),4.6,-2.9%[38.3 µM],0.8,-0.2,-16.9,-2.4
Nc1cc2nc[nH]c2cc1N,?,0.1%,?,-0.2,3.2,-0.2
CC(C)C1Cc2c(C#N)c(N)sc(=S)c2CO1 (stereo not drawn),-13.3,1.6%,-28.1,0.3,-19.5,-4.5
Nc1ncnc(Nc2ccccc2C(F)(F)F)n1,0.9,1.1%,-1.0,1.8,-13.6,-2.9
CCN(CC)C(=O)c1nc[nH]c1C(=O)N1CCN(C(=O)OC(C)(C)C)CC1,-0.4,-0.5%,-1.6,-0.6,-5.1,0.2
Cn1c(N)c(C(=O)COc2ccc(C#N)cc2)c(=O)n(C)c1=O,2.3,4.1%,-0.7,-0.6,4.7,-1.4
COC(=O)c1c(C)[nH]c(C(=O)OCC(=O)c2c(N)n(CC(C)C)c(=O)n(C)c2=O)c1C,-8.6,5.5%,-12.6,-0.3,-2.5,-0.1
CCCOc1cccc(C(=O)Nc2ccc3c(c2)OCCO3)c1,.,1.0%,-1.5,.,-6.2,1.8
CCCSC1=N/C(=C/c2ccsc2)C(=O)N1c1ccccc1,8.9,-0.1%,12.7,-0.6,3.3,-1.2
COc1cccc(C(=O)NNC(=O)c2ccc(NS(=O)(=O)c3cccs3)cc2)c1OC,-17.9,1.3%,-1.9,-0.1,-6.1,-1.3
N#CCCN1CCN(S(=O)(=O)c2ccc(S(=O)(=O)NCc3ccccc3)cc2)CC1,1.8,-3.7%,-2.1,3.9,1.5,-1.3
Cc1ccc(-c2nnc(N3CCN(C(=O)COc4cccc(C)c4)CC3)c3ccccc23)cc1,-9.3,-0.6%,-9.3,1.9,-4.4,0.3
CSc1ncccc1C(=O)Nc1ccc(S(=O)(=O)NC2=NCCCCC2)cc1,-1.1,1.8%,-2.4,0.7,-1.4,0.9
O=C(CSc1cccc[n+]1[O-])Nc1c(Br)cc([N+](=O)[O-])cc1Br,-4.2,2.7%,1.5,-0.2,-12.1,11.5
CCCONC(=O)Nc1ccccc1[N+](=O)[O-],-3.3,-1.3%,-4.3,-0.3,-19.5,-0.6
SMILES,CtBP-E1A blk,PINK1 modulator,Six1-Eya2 blk,TRPML1 ag,D2 PAM,D2 agonist
COc1cc(-c2nc3ccccc3c(=O)n2N)cc(OC)c1OC,.,-0.4%,4.0,-0.3,-2.4,-0.7
N#CC1(NC(=O)COC(=O)c2cc([N+](=O)[O-])ccc2N2CCCC2)CCCCC1,-26.7,-3.1%,-3.8,3.1,-18.0,-1.4
Cc1ccnc(Nc2nc(-c3ccc(O)cc3O)cs2)c1,-9.9,-0.9%,-9.9,2.7,-0.1,0.1
COc1ccc(-n2c(C)c(C)c3c(NCCO)ncnc32)cc1,-14.9,1.0%,-0.8,-1.4,-4.5,-3.3
CCCCOc1ccccc1C1NC(=O)NC(C)=C1C(=O)OCc1ccco1 (stereo not drawn),4.1,.,-3.8,0.0,2.7,2.6
O=C(Nc1ccccc1Oc1ccccc1)C1CC1,5.2,0.6%,7.8,0.5,-11.6,-1.3
O=C(O)C1=C[C@@H](C2CCCCC2)C[C@@H](OCCCCO)O1,-4.7,-0.3%,-2.8,-1.1,-5.6,-4.0
COc1ccccc1CNC(=O)COC(=O)c1cc([N+](=O)[O-])ccc1N1CCOCC1,-1.4,-0.8%,-5.4,0.6,-5.6,0.4

# Arranged by formula weight (lowest first): some entries from above
SMILES,CtBP-E1A blk,PINK1 modulator,Six1-Eya2 blk,TRPML1 ag,D2 PAM,D2 agonist
CC(C)C1Cc2c(C#N)c(N)sc(=S)c2CO1 (stereo not drawn),-13.3,1.6%,-28.1,0.3,-19.5,-4.5
Cc1ccnc(Nc2nc(-c3ccc(O)cc3O)cs2)c1,-9.9,-0.9%,-9.9,2.7,-0.1,0.1
COc1ccc(C(=O)CCC(=O)Nc2cccnc2)cc1OC,4.3,-1.8%,6.0,0.1,-0.9,-0.7
CCCSC1=N/C(=C/c2ccsc2)C(=O)N1c1ccccc1,8.9,-0.1%,12.7,-0.6,3.3,-1.2
C/C=C(\C)CN1CCC(Oc2cc(C(=O)NC3CC3)ccc2OC)CC1,6.0,0.5%,3.8,0.4,-27.0,-1.2
CCOc1ccc(S(=O)(=O)NCCC(=O)N2CCN(C(C)=O)CC2)cc1,-16.3,1.5%,13.7,-0.3,-13.6,-2.0
O=C(CN1C(=O)C2C3c4ccccc4C(c4ccccc43)C2C1=O)N1CCOCC1 (stereo not drawn),4.6,-2.9%[38.3 µM],0.8,-0.2,-16.9,-2.4
COc1ccc(S(=O)(=O)N2CCC(C(=O)NCCc3c[nH]c4ccccc34)CC2)cc1,-3.0,0.1%,9.3,1.3,-10.2,0.0
COc1cccc(C(=O)NNC(=O)c2ccc(NS(=O)(=O)c3cccs3)cc2)c1OC,-17.9,1.3%,-1.9,-0.1,-6.1,-1.3
O=C(CSc1cccc[n+]1[O-])Nc1c(Br)cc([N+](=O)[O-])cc1Br,-4.2,2.7%,1.5,-0.2,-12.1,11.5
